High-throughput results (PubChem BioAssay)
Methyltransferases: Primary Screen for Target Class Profiling of Small Molecule Inhibitors of Methyltransferases; purified enzyme, MTase-Glo SAH luminescence; hits give low values; calls only at 40 µM; hit rate 3.9% among 25,000; AID 1745853, 2022; active = -50% or lower on at least one of six enzymes; inconclusive = the cases between; inactive = as a rule above -30% on all six;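 further: enzymes were COMT GAMT GNMT HNMT NNMT and PNMT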
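Each enzyme was reacted with SAM and its substrate, with compounds tested once at 40 uM; SAH formed was read by MTase-Glo luminescence.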
Calls only; i = inactive; ? = inconclusive; + = active, no number. On the % scale 0 is the no-effect control and ±100 the full control effect. Some of the compounds tested; the hit share may differ from the screen's.

compound	Methyltransferases
COCC(=O)N[C@H]1CCN(C(=O)COC)[C@H](C(=O)N[C@@H](Cc2cccs2)C(N)=O)C1	i
COc1ccc(CN2C(=O)c3ccc(-c4ccco4)n3CC2(C)C(=O)NC2CCC(C)CC2)cc1 (stereo not given)	i
COc1ccc2c(c1O)OC[C@H]1c3ccc(O)cc3O[C@@H]21	i
N#CC1CCN(C(=O)c2nc(-c3ccc(Cl)cc3Cl)c3ccccn23)CC1	i
COC(=O)c1cccc2c1NC(c1ccc(Br)cc1)C1CC=CC21 (stereo not given)	i
CCOC(=O)c1cc2n(n1)CC(C)(C(=O)NCCC(C)C)N(c1ccc(C)cc1)C2=O (stereo not given)	i
CC[C@H](C)[C@H](NC(=O)[C@H](Cc1ccc(O)cc1)NC(=O)[C@@H](N)C(C)C)C(=O)N[C@@H](Cc1cnc[nH]1)C(=O)N1CCC[C@H]1C(=O)N[C@@H](Cc1ccccc1)C(=O)O	i
CN(C)C1CCN(C(=O)c2ccc(NC(=O)Nc3ccc(-c4nc(N5CCOCC5)nc(N5CCOCC5)n4)cc3)cc2)CC1	?
Cc1ccccc1CCNC(=O)c1cc2n(n1)CC(C)(C(=O)NCc1ccc(F)cc1)N(C)C2=O (stereo not given)	i
COCCCn1c(C)cc(C(=O)N2CCCC(c3[nH]ccc3C(N)=O)C2)c1C (stereo not given)	i
c1ccc(N2CCC(Cn3ccnc3-c3cc4n(n3)CCCNC4)C2)cc1 (stereo not given)	?
COc1cccc(Cn2ncc3c4sc(S(C)=O)cc4n(C)c3c2=O)c1 (stereo not given)	i
C=C1CC23CC(=O)C4C(CO)(CO)CCCC4(C)C2CCC1C3 (stereo not given)	i
N#Cc1cnc(N2CC3CCC(C2)N3CC(F)(F)F)s1	+
COc1ccccc1C(=O)N1CCC(C(=O)N2CCC(N3Cc4ccccc4C3=O)CC2)CC1	i
CC(=O)Nc1c2n(c3ccc(F)cc13)CC(C)(C(=O)NC1CCCCCC1)N(CC1CCCO1)C2=O (stereo not given)	i
COc1ccc(C(=O)Cn2nc3n(C(C)C)c(=O)c4ccc(C(=O)NC(C)C)cc4n3c2=O)cc1	i
COc1ccc(OC)c(S(=O)(=O)N2CCCCC2)c1	i
CCc1nc(C)sc1C(=O)N1C[C@@H](CN2CCCN(C)CC2)[C@@H](CO)C1	i
COc1ccccc1CN1C(=O)c2cc3c(OC)ccc(OC)c3n2CC1(C)C(=O)NC1CCCC1 (stereo not given)	i
CO[C@H]1C[C@@H]2CC[C@@H](C)[C@@](O)(O2)C(=O)C(=O)N2CCCC[C@H]2C(=O)O[C@H]([C@H](C)C[C@@H]2CC[C@H](n3cnnn3)[C@H](OC)C2)CC(=O)[C@H](C)/C=C(\C)[C@@H](O)[C@@H](OC)C(=O)[C@H](C)C[C@H](C)/C=C/C=C/C=C/1C	i
O[C@@](Cc1ncc(CC2(C(F)(F)F)CC2)[nH]1)(c1ccc(-n2cccn2)cc1)C(F)(F)F	i
CC(C)CCn1c(=O)c2ccc(C(=O)NCC(C)C)cc2n2c(=O)n(CC(=O)Nc3ccccc3)nc12	i
COCCNC(=O)c1cc(-c2ccccc2OC)c2cccn2n1	i
Cn1c(=O)c2ccc(C(=O)NC3CCCCC3)cc2n2c(SCc3ccccc3Cl)nnc12	i
COc1ccc(CN2C(=O)c3c(NC(C)=O)c4ccccc4n3CC2(C)C(=O)NC2CCCC2)cc1 (stereo not given)	i
COc1nccc(N2CCC(CC(=O)N3CCN(C(C)=O)CC3)CC2)n1	i
NC(N)=NC(=O)c1nc(Cl)c(N2CCCCCC2)nc1N	i
Cc1occc(=O)c1O[C@@H]1O[C@H](COC(=O)CC(C)(O)CC(=O)O)[C@@H](O)[C@H](O)[C@H]1O (stereo not given in full)	i
Cc1ccc(CNC(=O)CCCn2ccc3cc(S(=O)(=O)N4CCCC4)ccc32)o1	i
COCCNC(=O)C(NC(=O)c1ccccc1)C1CCN(C(=O)C2CC2)CC1 (stereo not given)	i
O=C(NC[C@H](O)CN1CCc2ccccc2C1)c1ccnc(NC2CCC2)c1	?
COCC(=O)NC[C@H]1CCN(Cc2ccc(Br)o2)C[C@H]1N(C)C	i
CCCN1C(=O)c2cc3sc(CC)cc3n2CC1(C)C(=O)NC1CCCCC1 (stereo not given)	i
Cc1ccc(C)c(N2C(=O)c3cc(-c4cccs4)nn3CC2(C)C(=O)NC2CCCCC2)c1 (stereo not given)	i
CCCn1c(=O)c2ccccc2n2c(=O)n(CC(=O)Nc3ccc(C)cc3Cl)nc12	i
CCOc1nc2cccc(C(=O)O)c2n1Cc1ccc(-c2ccccc2-c2nn[nH]n2)cc1	i
CCCn1c(=O)c2cc(F)ccc2n2c(SCC(=O)Nc3ccc4c(c3)OCCO4)nnc12	i
COc1cc(/C=C/C=O)cc(OC)c1O[C@@H]1O[C@H](CO)[C@@H](O)[C@H](O)[C@H]1O	i
COCCNC(=O)c1cc2n(n1)CC(C)(C(=O)NC1CCCCC1)N(C)C2=O (stereo not given)	i
Cc1cc(Cl)ccc1OCCCC(=O)NO	?
Cc1cccn2c(CC(=O)N3CCn4nc(CO)cc4C3)cnc12	i
COc1cc(O)cc2c1C(=O)OC(C)C2 (stereo not given)	?
O=C(O)c1cccc(C(=O)CCC2OC(n3cnc4c(=O)[nH]cnc43)C(O)C2O)c1 (stereo not given)	i
CC(C)NC(=O)c1ccc2c(=O)n(Cc3ccccc3)c3nnc(SCC(=O)c4ccccc4)n3c2c1	i
Cc1ccc(Cn2nc3n(C(C)C)c(=O)c4ccc(C(=O)NC5CCCCC5)cc4n3c2=O)cc1	i
CC1(C(=O)NC2CCCCC2)Cn2c(ccc2-c2ccco2)C(=O)N1Cc1ccccc1 (stereo not given)	i
CC1CCC2(NC1)OC1CC3C4CC=C5CC(O[C@@H]6O[C@H](CO)[C@@H](O[C@@H]7O[C@@H](C)[C@H](O)[C@@H](O)[C@H]7O)[C@H](O)[C@H]6O[C@@H]6O[C@@H](C)[C@H](O)[C@@H](O)[C@H]6O)CCC5(C)C4CCC3(C)C1C2C (stereo not given in full)	i

2 entries from above, as labelled records.
> COc1cc(O)cc2c1C(=O)OC(C)C2 (stereo not given)
  Methyltransferases: ?

> Cc1ccc(Cn2nc3n(C(C)C)c(=O)c4ccc(C(=O)NC5CCCCC5)cc4n3c2=O)cc1
  Methyltransferases: i

Following part:
compound	Methyltransferases
Nc1ncnc2c1C(=O)N(c1ccc(C3CCC(CC(=O)O)CC3)cc1)CCO2 (stereo not given)	i
O=C(NCCCc1ccccc1)C1CCCCN1Cc1ccc(-c2ccsc2)cc1 (stereo not given)	i
COCC(=O)NC[C@H]1O[C@@H](CO)[C@@H](O)[C@H]1N1CCc2ccccc2C1	i
CCc1noc(-c2ccn3c(CNC(=O)c4ccc(C)c(F)c4)nnc3c2)n1	i
CC(C)Cn1c(=O)c2ccc(C(=O)NC3CCCC3)cc2n2c(=O)n(CC(=O)NC(C)(C)C)nc12	i
O=C(c1cc(-c2ccc(Cl)cc2)c2nncn2n1)N1CCOCC1	i
CCCCOc1ccccc1-c1cc2n(n1)CC(C)(C(=O)NC1CCCCC1)N(CC)C2=O (stereo not given)	i
CCC(C)NC(=O)c1ccc2c(=O)n(C)c3nn(CC(=O)c4cccc(OC)c4)c(=O)n3c2c1 (stereo not given)	i
CCCn1c(=O)c2ccc(Cl)cc2n2c(=O)n(CC(=O)Nc3ccc(C)cc3Cl)nc12	i
COc1ccc(NC(=O)N2CCn3cccc3C2C)cc1 (stereo not given)	i
COc1cc(O)cc(C)c1C(=O)O[C@@H]1[C@H](O)[C@@H](CO)O[C@H]1n1ccc(=O)[nH]c1=O	i
CCC(CC)C(=O)OC12C(OC(=O)C(C)C)C(C)C3(O)C(C=C(CO)CC4(O)C(=O)C(C)=CC43)C1C2(C)C (stereo not given)	i
CCOC(=O)c1cc2n(n1)CC(C)(C(=O)NC1CCCC1)N(c1ccc(C)c(F)c1)C2=O (stereo not given)	i
Cc1ccc(NC(=O)N2CCn3cccc3C2Cc2ccccc2)cc1F (stereo not given)	i
CCC1c2ccc(C)n2CCN1C(=O)Nc1cc(Cl)ccc1C(=O)OC (stereo not given)	i
C/C(=C\CO[C@@H]1O[C@H](CO[C@H]2OC[C@](O)(CO)[C@H]2O)[C@@H](O)[C@H](O)[C@H]1O)C(C)(C)O	i
Cc1ccc(Cn2c(=O)c3ccccc3n3c(=O)n(CC(=O)Nc4cc(Cl)ccc4C)nc23)cc1	i
Cc1cnc(CCNS(=O)(=O)c2cccc(F)c2)n1C(C)C	i
COc1ccccc1CCNC(=O)CNC(=O)C1(C)Cn2c(cc3ccccc32)C(=O)N1C (stereo not given)	i
CCCn1c(=O)c2ccccc2n2c(SCC(=O)Nc3cc(Cl)ccc3OC)nnc12	i
COc1cc(O)c2c(c1)/C=C/C[C@H](O)[C@H](O)C(=O)/C=C\C[C@H](C)OC2=O	?
O=C(CCc1nnc2n(Cc3ccc(Cl)cc3)c(=O)c3ccccc3n12)N1CCN(c2ncccn2)CC1	i
O=C(/C=C/c1ccc(O)cc1)O[C@H]1[C@@H]2C=CO[C@@H](O[C@@H]3O[C@H](CO)[C@@H](O)[C@H](O)[C@H]3O)[C@@H]2[C@@]2(CO)O[C@@H]12	i
O=C(Cn1c(=O)oc2cc(S(=O)(=O)N3CCCC3)ccc21)N1CCN(Cc2ccccc2)CC1	i

Part of the list above, as labelled records:
mol: Cc1cnc(CCNS(=O)(=O)c2cccc(F)c2)n1C(C)C
  Methyltransferases = i

mol: COc1ccccc1CCNC(=O)CNC(=O)C1(C)Cn2c(cc3ccccc32)C(=O)N1C (stereo not given)
  Methyltransferases = i

mol: CCCn1c(=O)c2ccccc2n2c(SCC(=O)Nc3cc(Cl)ccc3OC)nnc12
  Methyltransferases = i

mol: COc1cc(O)c2c(c1)/C=C/C[C@H](O)[C@H](O)C(=O)/C=C\C[C@H](C)OC2=O
  Methyltransferases = ?

(cont.)
compound	Methyltransferases
Cc1ccc(CCNC(=O)CCn2ccc3cc(S(=O)(=O)N4CCC(C)CC4)ccc32)cc1	i
O=C(CCc1nnc2n(Cc3ccc(Cl)cc3)c(=O)c3ccccc3n12)NCc1ccc(F)cc1	i
CC1=NS(=O)(=O)N(C)C=C1C(=O)OCc1nc(C)no1	i
COC(=O)C1=COC(O[C@@H]2O[C@H](CO[C@@H]3O[C@H](COC(=O)/C=C\c4ccc(O)cc4)[C@@H](O)[C@H](O)[C@H]3O)[C@@H](O)[C@H](O)[C@H]2O)C2C(CO)=CCC12 (stereo not given in full)	i
CCCn1c(=O)c2ccccc2n2c(=O)n(CC(=O)Nc3cccc(F)c3)nc12	i
C=CCn1c(=O)c2ccc(C(=O)NC(C)C)cc2n2c(=O)n(CC(=O)NCc3ccccc3)nc12	i
O=C(C1CCCC1)N1CCCC(c2nn[nH]n2)C1 (stereo not given)	i
Cc1cccc(N(C)C(=O)Cn2c(=O)oc3cc(S(=O)(=O)N4CCCCC4)ccc32)c1	i
COC(=O)C1=C(C)NC(COC(N)=O)=C(C(=O)OC(C)C)C1c1cccc(Cl)c1Cl (stereo not given)	i
O=C(NOCC1CC1)c1ccc(F)c(F)c1Nc1ccc(I)cc1Cl	i
CN(C)C(=O)Nc1cccc(-c2ccc(N(C)C)cc2)c1	i
COc1ccccc1CN1C(=O)c2cc3sccc3n2CC1(C)C(=O)NC1CCCC(C)C1C (stereo not given)	i
CC1(C(=O)NC2CCCCCC2)Cn2c(cc3occc32)C(=O)N1C1CCCCC1 (stereo not given)	i
COc1ccc(-c2cc3n(n2)CC(C)(C(=O)NCc2ccccc2)N(c2cccc(OC)c2)C3=O)cc1 (stereo not given)	i
CN1C(=O)c2cc(C(=O)NC3CCCc4ccccc43)nn2CC1(C)C(=O)NC1CCCCCC1 (stereo not given)	i
CCC(C)NC(=O)c1ccc2c(=O)n(Cc3ccccc3)c3nn(Cc4ccc(F)cc4)c(=O)n3c2c1 (stereo not given)	i
O=C(O)c1cc(=O)cc(C(=O)O)[nH]1	i
O=C(Cn1cc(C(F)(F)F)ccc1=O)N1CCC2(CCCNC2=O)C1 (stereo not given)	i
CN1CCCCCCN(C(=O)Cc2cccc(F)c2)[C@H]2CCC[C@H]2C1=O	i
COc1cc(C(O)CO)ccc1O (stereo not given)	i
N#Cc1c[nH]c2c(C(=O)N3CCN(CCc4ccc(F)cc4)CC3)cccc12	i
Cc1cc(OCc2nc(-c3ccccc3Cl)cs2)ccc1OCC(=O)O	?
CC1(C(=O)NC2CCCC2)Cn2c(cc3ccccc32)C(=O)N1C1CCN(Cc2ccccc2)CC1 (stereo not given)	i
O=C(CCc1nnc2n(Cc3ccccc3)c(=O)c3ccccc3n12)NCCc1ccc(Cl)cc1	i
CCC(C)NC(=O)c1ccc2c(=O)n(C(C)C)c3nn(CC(=O)NC(C)C)c(=O)n3c2c1 (stereo not given)	i
COCCn1c(CO)nnc1C1CC(NC(=O)c2cc(C)n3nc(C)cc3n2)C1 (stereo not given)	i
CC[C@H](/C=C/[C@@H](C)[C@H]1CC[C@H]2[C@@H]3CC=C4C[C@@H](O)CC[C@]4(C)[C@H]3CC[C@]12C)C(C)C	i
Fc1cc(F)cc(Cc2nc3nccc(-c4cccnc4)n3n2)c1	i
Cc1nc([C@@H]2CN(C(=O)c3cccc(C#N)c3)C[C@H]2C(N)=O)n[nH]1	i
COc1ccc(-c2cc3n(n2)CC(C)(C(=O)NCc2ccccc2OC)N(c2ccc(F)cc2)C3=O)cc1 (stereo not given)	i
